Bioassay records as filed in PubChem BioAssay.
VCAM-1 up: boosters of cytokine-driven VCAM-1 levels – cell-based, plate reader, pooled HUVEC, TNFa stimulus (AID 455); HUVEC TNFa-induced VCAM-1 immunofluorescence, plate reader; numbers were filed only for top-ranked candidate wells; augmentation, % at 5 µM; 0.2% of 10,000 active;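 active = a compound raising TNF-alpha-driven VCAM-1 surface staining, with its hit status upheld on visual or statistical review; inactive = the rest, including hits rejected on review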;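 also: 0% = TNFa with vehicle and 100% = strongest image-checked hit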
26S disassembly: blocks ATP-dependent breakdown of the yeast 26S proteasome. 0.2% of 24,000 active. anti-FLAG beads, GFP-proteasome disassembly, flow cytometry. inhibition of disassembly, % (concentration not given with the values);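 active = above 40%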;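 also: plate controls were ATP control with full disassembly for no effect and ATP-gamma-S intact proteasomes for full effect; higher percent means more bead fluorescence retained so stronger block of disassembly; stock transfer was 100 nL into about 10 µL; wells with too few beads may also be inconclusive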
* = called active by the depositor; i = inactive; · = no result given.

SMILES	VCAM-1 up	26S disassembly
CCOCCCNC(=O)C(c1ccc(Cl)cc1)N1CCN(c2ccccc2)CC1 (stereo not given)	·	3.8
O=C(C1CCN(S(=O)(=O)c2cccc3cccnc23)CC1)N1CCN(Cc2ccccc2)CC1	·	1.0
O=C(c1ccco1)N1CCN=C1SCc1ccc(F)cc1	·	7.3
COc1ccc(OC)c(C2CC(=O)C3=C(C2)NC(=O)CC3c2ccc(O)c(OC)c2)c1 (stereo not given)	·	0.0
Cn1c(=O)c2c(nc(Oc3ccc4c(c3)OCO4)n2Cc2ccc(F)cc2)n(C)c1=O	i	0.1
O=C(CCN1CCN(c2ccccc2F)CC1)c1ccc(Br)cc1	·	0.2
COC(=O)c1ccc2c(c1)N(Cc1nc(-c3ccc(Cl)cc3)oc1C)C(=O)C1CCCN21 (stereo not given)	·	138*
COC(=O)Nc1sc2c(c1C(N)=O)CCCCCC2	i	-0.6
Cn1c(C(=O)N2CCCc3ccccc32)cc2c(=O)n3ccccc3nc21	·	0.6
O=C(NCC1COc2ccccc2O1)C1CCCN(S(=O)(=O)c2cccc3cccnc23)C1 (stereo not given)	·	-0.3
Cc1cc(C)n(CCc2nc3c4ccccc4nc(SCc4ccc(C#N)cc4)n3n2)n1	·	-0.7
CCOc1ccc(NC(=O)c2nccnc2CO)cc1	·	-2.3
CC(C)C(NC(=O)C1CCCCC1)C(=O)N1CCN(c2ccc(F)cc2)CC1 (stereo not given)	·	-0.8
O=C1c2ccccc2C(Nc2ccc(Cl)cn2)N1c1cccnc1 (stereo not given)	·	-0.7
O=C(O)c1ccccc1C(=O)N1CC=C(c2ccccc2)CC1	·	-0.3
COc1cccc(-c2cc(C(F)(F)F)n3nc(N)nc3n2)c1	i	1.4
O=C(Cn1nnc(-c2ccc(S(=O)(=O)N3CCCC3)cc2)n1)NCC1CCCO1 (stereo not given)	i	0.2
COc1ccccc1S(=O)Cc1ccc(C(=O)NC2CCCC2)o1 (stereo not given)	·	0.2
O=C(C1CCCN(S(=O)(=O)c2ccc(F)cc2)C1)N1CCCC1 (stereo not given)	·	-0.9
CCN1C(=O)/C(=C/N2CCc3ccccc32)SC1=S	i	2.4
CC1(C)CC(=O)c2cnc(NC(=O)CSc3nc4ccccc4o3)nc2C1	i	-0.2
O=C(c1cc(-c2cccc(O)c2)on1)N1CCN(C(c2ccccc2)c2ccccc2)CC1	i	-0.2
COC(=O)C1(C)NC(=O)c2ccccc2N1 (stereo not given)	·	1.1
CN(C(=O)COc1cc(=O)n(C)c2ccccc12)c1cccc(Cl)c1	·	0.6
CCC1(NC(C)=O)CC2CC1CC2NC(C)=O (stereo not given)	i	1.2
SMILES	VCAM-1 up	26S disassembly
COc1ccccc1CCNC(=O)CSc1nc(-c2ccco2)cc(C(F)(F)F)n1	·	0.6
Cc1nnc(N(C)C(=O)Cc2ccc3c(c2)OCO3)s1	i	0.7
COCCNC(=O)C(c1cccs1)N(C(=O)Cn1nnc2ccccc21)c1ccccc1 (stereo not given)	i	-0.3
CCSc1nnc(NC(=O)c2ccccn2)s1	i	3.6
O=C(NCC12CC3CC(CC(C3)C1)C2)c1cc2n(n1)C(C(F)(F)F)CC(c1ccco1)N2 (stereo not given)	·	-4.8
CCOC(=O)N1CCN(C(=O)CSCC(=O)Nc2nc(-c3ccc(OC)cc3)cs2)CC1	i	-0.2
CCOC(=O)c1sc(NC(=O)CSc2ncn(-c3ccccc3)n2)nc1C	i	0.4
Cc1ccc2nc(NC(=O)CCNS(=O)(=O)c3cccs3)sc2c1	·	0.4
CCOc1ccc(N2C(=O)c3cccnc3C2=O)cc1	·	-2.8
CC1=CCC2C(=O)N(c3nc(C)cc(C)n3)C(=O)C2C1 (stereo not given)	i	0.0
CCCc1[nH]nc2c1C(c1cccc(OC(=O)c3ccco3)c1)C(C#N)=C(N)O2 (stereo not given)	i	-0.5
CC(C)CCn1c(=O)c2ccccc2n2c(CN(C)Cc3ccccc3)nnc12	i	-0.3
CCOc1ccc(OCC)c(NC(=O)CN(c2ccc(C)cc2)S(=O)(=O)c2c(C)noc2C)c1	·	2.1
Cc1cccc(-n2c(N)cc(=O)nc2SCC(=O)Nc2ccccc2)c1	·	-0.2
O=C1OCCC1Sc1ncnc2sccc12 (stereo not given)	i	-7.6
CN(CC(=O)N1CCCCC1)S(=O)(=O)c1cccc2cccnc12	i	-0.1
CCn1c(=O)cc(OCC(=O)NCCCN2CCN(c3cccc(Cl)c3)CC2)c2ccccc21	·	1.5
NC(=O)C1CCN(C(=O)c2ccc(CS(=O)(=O)c3c(Cl)cccc3Cl)o2)CC1	·	0.9
COC(=O)C1(C(F)(F)F)N=C(N(C)C)OC(N(C)C)=N1	·	0.6
CCOc1cc(C(=O)Nc2ccc(S(=O)(=O)Nc3cc(C)on3)cc2)cc(OCC)c1OCC	·	-0.1
CC(C)c1nnc(NC(=O)CCC(=O)NCc2ccc3c(c2)OCO3)s1	i	1.5
O=C(O)CCC(=O)N1CCN(c2ccccn2)CC1	·	0.9
COc1ccccc1NC(=O)Cn1nnc(-c2ccccc2NC(=O)c2ccco2)n1	i	1.1
Cc1c(NC(=O)c2ccc(COc3ccc4ccccc4c3)o2)c(=O)n(-c2ccccc2)n1C	i	1.5
Cc1ccc(S(=O)(=O)N(CCO)c2cc3c(s2)CCCC3)cc1	i	-3.9

Record cards, as listed above. Order of values: VCAM-1 up, 26S disassembly
CCOC(=O)c1sc(NC(=O)CSc2ncn(-c3ccccc3)n2)nc1C reads i, 0.4
O=C1c2ccccc2C(Nc2ccc(Cl)cn2)N1c1cccnc1 (stereo not given) reads ·, -0.7
CCOc1ccc(NC(=O)c2nccnc2CO)cc1 reads ·, -2.3

More structures follow:
SMILES	VCAM-1 up	26S disassembly
COc1ccc(S(=O)(=O)NCC(c2cccnc2)N2CCN(c3ccccc3)CC2)cc1C (stereo not given)	·	13
CCOc1ccc(NC2c3ccccc3C(=O)N2c2ccc(Cl)cn2)cc1 (stereo not given)	·	-1.9
COc1ccccc1C(=O)Nc1ccccc1C(=O)N1CCCC1	i	-3.1
CCCC(=O)Nc1ncnc2c1ncn2[C@@H]1O[C@@H]2COP(=O)(O)O[C@H]2[C@H]1OC(=O)CCC	i	0.3
COC(=O)c1ccccc1NC(=O)C1CC(c2ccc(F)cc2)=NO1 (stereo not given)	·	-0.6
CCSc1nnc(NC(=O)c2cc(C)oc2C)s1	i	-0.2
O=C(Cn1cc2c(n1)CCCC2)Nc1ccccc1Cl	·	0.0
O=C(COc1ccccc1)NCC(c1cccs1)N1CCOCC1 (stereo not given)	i	0.7
COc1ccc(N2C(=O)C3CCCN3C2c2ccc(C)cc2)cc1 (stereo not given)	·	-0.6
O=C(CCCCCn1c(=O)[nH]c2ccsc2c1=O)NCc1cccs1	·	-1.3
Cc1ccc(Cn2ccc(NC(=O)c3noc4c3CCCC4)n2)cc1	i	-1.5
CC1COC(c2cccn2Cc2ccccc2Cl)=N1 (stereo not given)	·	0.5
COc1cccc(C2C(C(N)=O)=C(C)Nc3nc(-c4cccc(Cl)c4)nn32)c1 (stereo not given)	·	-1.6
Fc1cccc2sc(Nc3nnc(-c4ccco4)o3)nc12	i	0.4
Cc1ccc(C)c(N2CCN(C(=O)CCNC(=O)Cn3ccc4ccccc4c3=O)CC2)c1	·	0.7
CCC(C)NC(=O)C1CCN(S(=O)(=O)c2cccnc2)CC1 (stereo not given)	·	1.0
CCOC(=O)N1CCC(NC(=O)c2cc(-c3ccc(F)cc3)[nH]c2C)CC1	·	-0.3
COc1ccccc1S(=O)(=O)Cc1ccc(C(=O)NC2CCCCC2)o1	·	1.4
Cc1ccc2c(c1)N(CCC(=O)NCc1ccccn1)C(=O)CO2	·	-0.1
COc1ccc(C2N(C(=O)CN3CCOCC3)CCN2S(=O)(=O)c2ccccc2)cc1 (stereo not given)	·	-0.8
O=C1c2ccccc2-c2nc3ncnn3c(-c3ccccc3)c21	i	-2.5
Cc1nc(C)c(C(=O)Nc2cccc(Cl)c2)o1	·	0.9
CN(CCC#N)C(=O)Cn1nc(Cc2ccncc2)c2ccccc2c1=O	·	1.0
Cc1cc(N2CCN(c3cccc(C(F)(F)F)c3)CC2)n2ncnc2n1	·	-1.1
CCN(C(=O)c1cn(C)c(=O)c2cc(OC)c(OC)cc12)c1cc(C)ccc1C	·	0.8

With a hit mark in 26S disassembly, among the entries above:
SMILES	VCAM-1 up	26S disassembly
COC(=O)c1ccc2c(c1)N(Cc1nc(-c3ccc(Cl)cc3)oc1C)C(=O)C1CCCN21 (stereo not given)	·	138*

Laid out differently: two of the compounds above.
Results follow in this order: VCAM-1 up | 26S disassembly
Cc1ccc(C)c(N2CCN(C(=O)CCNC(=O)Cn3ccc4ccccc4c3=O)CC2)c1
    · | 0.7
CCC(C)NC(=O)C1CCN(S(=O)(=O)c2cccnc2)CC1 (stereo not given)
    · | 1.0

Further compounds follow:
SMILES	VCAM-1 up	26S disassembly
CCCCOc1ccc(C(=O)OC(C)CN(C)C)cc1 (stereo not given)	·	0.6
COc1ccc(CN(C(=O)CN2C(=O)COc3ccccc32)C2CCCC2)c(OC)c1	i	1.6
COc1ccc(CNC(=O)CCCCCn2c(SCC#N)nc3cc4c(cc3c2=O)OCO4)cc1	·	-0.4
CC(C)N(CCNC(=O)C1CCN(S(=O)(=O)N2CCOCC2)CC1)Cc1ccccc1	·	1.9
O=c1oc2ccccc2c2c1ncn2-c1ccccc1	i	0.3
CCOC(=O)Cc1cc(=O)n2[nH]c(C)c(-c3ccc(OC)cc3)c2n1	i	0.1
Cc1ccc(NC(=O)Cn2nnc(C(=O)Nc3ccc(C)c(C)c3)c2N)cc1	·	-0.4
Cc1ccc(S(=O)(=O)NC(C)C(=O)Nc2ccc(C(N)=O)cc2)cc1 (stereo not given)	i	0.3
CCOc1ccc(OCCCCN(C)C)cc1	i	1.5
Cc1c2c(n3c(nc4ccccc43)c1C#N)N(Cc1cccnc1)CC2	·	19
CCn1c(SCC(=O)Nc2nc3ccccc3s2)nc2c(c1=O)SC(C)C2 (stereo not given)	·	-0.5
CC1Cc2ccccc2N1CC(=O)NC(=O)NCc1ccco1 (stereo not given)	i	-1.1
COc1ccc(-n2ncc3c(N4CCC(C)CC4)ncnc32)cc1	i	-0.7
Cc1c(NC(=O)c2ccc3c(c2)OCO3)cccc1-c1nc2ncccc2o1	·	0.0
C=CCn1c(C)cc(C(=O)CSc2nc3ccccc3c(=O)[nH]2)c1C	i	0.1
CCCS(=O)(=O)N1CCCC(C(=O)NCCCN2CCN(c3ccccc3F)CC2)C1 (stereo not given)	·	0.7
COc1ccc(OC)c(NC(=O)c2cnc3ccccn3c2=O)c1	·	-0.9
O=C(NCCN1CCCCCC1)C1CCC(CNS(=O)(=O)c2cccc3cccnc23)CC1 (stereo not given)	·	4.8
O=S(=O)(c1ccc(C2=CSC3=NCCN23)cc1)N1CCOCC1	·	2.6
O=C(NCc1ccc2c(c1)OCO2)C1CCN(S(=O)(=O)c2cccc3nsnc23)CC1	·	1.7
Cc1cccc(NC(=O)CS(=O)(=O)c2cn(C)c3ccccc23)c1C	·	-2.1
COc1ccccc1-n1c(=O)[nH]c2c(C(N)=O)nc(CC(C)C)nc21	i	0.3
CC(O)c1nc2ccccc2n1C1CCCCC1 (stereo not given)	i	-1.7
CCn1cc(C(=O)NC2CCCC2)c(=O)c2cc(S(=O)(=O)N3CCOCC3)ccc21	·	0.3
CCOc1ccc(S(=O)(=O)n2ccnc2)c2ccccc12	·	-0.3
SMILES	VCAM-1 up	26S disassembly
CCOC(=O)c1cnc(-n2nc(C)cc2C)nc1Nc1ccc(N(C)C)cc1	i	0.1
Cc1cccc(N(C(=O)c2cnc3n(c2=O)CCS3)C2CCCCC2)c1	·	0.6
CCn1c(=O)cc(SCC(=O)Nc2cccnc2)c2ccccc21	i	-0.8
Cc1nn(-c2ccccc2)c2c1C(=O)NC(=O)C(C)(C)C2	i	-2.7
FC(F)(F)c1cc(-c2ccccc2)nc(NCC2CCCO2)n1 (stereo not given)	·	0.2
COCCCNC(=O)C1CCCN(C(=O)Nc2ccc(OC)cc2)C1 (stereo not given)	i	0.6
C=CCSc1nnc(Cc2c(C)[nH]c3ccccc23)o1	i	0.7
CC(=O)c1cc(C#N)c(SCC(=O)OC(C)(C)C)nc1C	·	-1.0
COc1ccc(/C=C(/C#N)c2cccnc2)cc1OC	i	0.4
COc1ccc(CC(=O)Nc2c3c(nn2-c2cccc(C)c2C)CS(=O)(=O)C3)cc1	·	1.5
Cc1cc(C)n2c(SCc3ccc(C#N)cc3)nnc2n1	·	-0.3
CCOc1ccc(-c2cc(CCCC(=O)NCc3ccco3)no2)cc1	·	-2.9
CC(C)(C)C1CCc2onc(C(=O)Nc3cnn(Cc4ccc(F)cc4)c3)c2C1 (stereo not given)	i	-1.6
COc1ccc(-c2cc(C(=O)NCC(C)C)no2)cc1	·	0.0
CC(C)C(c1nnnn1CC1CCCO1)N1CCN(Cc2ccc3c(c2)OCO3)CC1 (stereo not given)	i	-2.5
COc1ccc(-c2ccc(=O)[nH]n2)cc1	·	-1.7
Cc1ccc(C)c(S(=O)(=O)N2CCC(c3nc4c(nnn4Cc4ccc(F)cc4)c(=O)[nH]3)CC2)c1	·	0.3
N#Cc1cccc(NC(=O)Nc2cccs2)c1	·	0.2
Cc1ccc(NC(=O)Cn2cccc2)cc1Cl	i	-0.1

Part of the list above in order of molecular weight, high to low:
SMILES	VCAM-1 up	26S disassembly
COCCCNC(=O)C1CCCN(C(=O)Nc2ccc(OC)cc2)C1 (stereo not given)	i	0.6
COc1ccc(/C=C(/C#N)c2cccnc2)cc1OC	i	0.4
Cc1ccc(NC(=O)Cn2cccc2)cc1Cl	i	-0.1

A portion of the library (hit frequency here may not be typical).
